Vaccinia Venus = vaccinia inhibition (Venus reporter). Vaccinia virus Venus reporter expression, fluorescence. Potency, µM (series often up to 36.5 µM), for the others: top-dose activity change, negative = inhibition, hits mostly inhibitors. actives 0.46% (n = 330,000); active means well fitted inhibition curve with a large enough effect; inconclusive means small, poorly fitted or top-dose-only effect; inactive means no such curve, though single readings can be large or run the other way; tested in A549 cells; note: nearly all actives have a fitted effect of over 30% in size; inactives centre near -10
Vaccinia mCherry = inhibitors of vaccinia virus infection (mCherry reporter signal). Vaccinia virus mCherry reporter infection, fluorescence; about a quarter of the inactives have no number. Potency, µM (doses to about 36.5 µM), inactives show at the highest dose activity change, negative = inhibition, hits mostly inhibitors. actives 0.63% (n = 310,000); active = well fitted inhibition curve with a large enough effect; inconclusive = small, poorly fitted or top-dose-only effect; inactive = no such curve, though single readings can be large or run the other way; tested in A549 cells; note: nearly all actives have a fitted effect of over 35% in size; inactives centre near -10
* = called active by the depositor; i = inactive; ? = inconclusive; . = no result given; & = joins results of further samples; [ ] = remark or other dose. % is set by controls: 0 for no effect and ±100 for the full control effect; potency is the fitted concentration of half-maximal effect.

smiles	Vaccinia Venus	Vaccinia mCherry
CCOC(=O)C1=CCN(S(=O)(=O)c2ccccc2C)C1c1ccc(C)cc1 (stereo not drawn)	8.0%	8.9%
CCCC#Cc1ccc2c(c1)COc1c3ccccc3nn1-2	-19.7%	?
Cn1cnc(S(=O)(=O)N2CCCC(C(=O)NCc3ccccc3Cl)C2)c1 (stereo not drawn)	-2.0%	-12.4%
Cc1ccc(C(=O)N(c2c(C)n(C)n(-c3ccccc3)c2=O)C(C)C)cc1	-7.8%	-19.3%
O=C(C=Cc1ccc2c(c1)OCO2)OCC=Cc1ccc2c(c1)OCO2	6.5%	-2.5%
C[C@]12CC[C@H](O)CC1=C([N+](=O)[O-])CC1C2CC[C@@]2(C)C1CC[C@@H]2O (stereo partly drawn)	-13.0%	-5.6%
C[C@@H]1CN([C@@H](C)CO)C(=O)CCCn2nncc2CO[C@H]1CN(C)C	-13.8%	i
COCCCNC(=S)N1CCN(C(c2ccccc2)c2ccccc2)CC1	-18.4%	-3.0%

Additional entries
smiles	Vaccinia Venus	Vaccinia mCherry
O=C(c1ccc(S(=O)(=O)N2CCCCC2)cc1)N1CCCc2ccccc21	-1.2%	-0.1%
NC(=O)c1ccccc1NC(=O)CSc1cn[nH]n1	-1.9%	-8.3%
CCN(CC)S(=O)(=O)c1cc(C(=O)N(C)CC(=O)Nc2ccc(Cl)cc2)ccc1Cl	-23.1%	-23.3%
CC(C)c1ccc(NC(=O)CSc2nnc(-c3ccccc3)n2C)cc1	-22.2%	-21.4%
Cc1ccccc1C(=O)Nc1cccc(C(=O)OCc2cc(=O)n3c4c(sc3n2)CCCC4)c1	-13.8%	i
O=C(Oc1ccccc1)c1ccc(NC(=O)c2ccco2)cc1	-7.5%	-10.7%
CCN(CC)C(=O)c1[nH]cnc1C(=O)N[C@@H](C)C(=O)OC(C)(C)C	-1.9%	-12.9%
Cc1ccc(NCCc2ccc(C)nc2)cc1	-6.3%	i[1.46 µM]

Reprinted at random: two records from the list, in no set order.
smiles	Vaccinia Venus	Vaccinia mCherry
O=C(Oc1ccccc1)c1ccc(NC(=O)c2ccco2)cc1	-7.5%	-10.7%
CCN(CC)S(=O)(=O)c1cc(C(=O)N(C)CC(=O)Nc2ccc(Cl)cc2)ccc1Cl	-23.1%	-23.3%

Going on with the list.
smiles	Vaccinia Venus	Vaccinia mCherry
C=C1CCN(C(CC(C)C)C(=O)OC)S(=O)(=O)c2ccccc21 (stereo not drawn)	-13.1%	i
O=C(Cc1ccccc1)N/N=C\c1ccc(Br)o1	-6.5%	i
Cc1ccc(Cl)cc1N1CCN(C(=S)NCc2ccco2)CC1	-20.0%	?
COc1ccc(C2(C#N)CCN(C)CC2)cc1	-10.6%	-18.1%
COc1ccc(CN(Cc2cc3cccc(C)c3[nH]c2=O)C(=O)N(C)C)cc1	-1.1%	-3.7%
COc1ccc(CC(=O)Nc2ccc(C#N)c(Cl)c2)cc1S(=O)(=O)N1CCOCC1	-23.9%	-13.4%
CCOC(=O)c1cc(C(=O)OCC)cc(-n2c(C)cc(C(=O)CN3CCOCC3)c2C)c1	-6.8%	-14.8%
COCCn1c(SCC(=O)NCCCN2CCCC2=O)nc2ccccc2c1=O	-9.0%	i

Next section.
smiles	Vaccinia Venus	Vaccinia mCherry
Cc1ccc(C(=O)Nc2cccc(C(=O)N/N=C/c3ccccc3F)c2)cc1	-29.0%	?
CC(=O)Nc1ccccc1NC(=O)c1cccc2ccccc12	-1.1%	-8.6%
Cc1ccc(S(=O)(=O)N2CCN(C(=O)C(C)Cn3nc(C)c(C)c3C)CC2)cc1C (stereo not drawn)	-20.7%	-20.3%
Cc1ccc(-c2nc(C)sc2CC(=O)Nc2cccc(C)c2C)cc1	-0.5%	-12.9%
O=C(NCCCN1CCOCC1)c1cc2c(=O)[nH]c3ccccc3c2s1	-5.4%	-14.2%
COc1ccc(OC)c(N(CC(=O)Nc2cccnc2)S(=O)(=O)c2ccc(OC)c(OC)c2)c1	-7.6%	.
O=C(/C=C/c1c(Cl)cccc1Cl)NCCCn1ccnc1	-4.1%[7.34 µM]	-19.7%[7.34 µM]
O=C(COc1ccc(Cl)cc1Cl)Nc1ccc(-c2ccc(N3CCOCC3)nn2)cc1	-0.3%	5.3%

Four structures already listed, sorted by molar mass, high to low:
smiles	Vaccinia Venus	Vaccinia mCherry
COc1ccc(OC)c(N(CC(=O)Nc2cccnc2)S(=O)(=O)c2ccc(OC)c(OC)c2)c1	-7.6%	.
O=C(COc1ccc(Cl)cc1Cl)Nc1ccc(-c2ccc(N3CCOCC3)nn2)cc1	-0.3%	5.3%
Cc1ccc(S(=O)(=O)N2CCN(C(=O)C(C)Cn3nc(C)c(C)c3C)CC2)cc1C (stereo not drawn)	-20.7%	-20.3%
O=C(NCCCN1CCOCC1)c1cc2c(=O)[nH]c3ccccc3c2s1	-5.4%	-14.2%

Remaining list, next part
smiles	Vaccinia Venus	Vaccinia mCherry
COc1ccc(CNC(=O)CC[C@H]2O[C@@H](n3ccc(=O)[nH]c3=O)[C@H](O)[C@@H]2O)cc1	-10.4%	i
O=S(=O)(Nc1ncccn1)c1ccc(NS(=O)(=O)c2cccc(Cl)c2Cl)cc1	-0.9%	-0.3%
Cc1cc2nc3c(c(C(F)(F)F)n2n1)CCCC3	-4.5%	-13.4%
C=CCOC(=O)c1[nH]c2c(c1C)C(=O)CC(c1cc(OC)c(OC)c(OC)c1)C2 (stereo not drawn)	-21.8%	?
COc1ccc(CNC(=O)C2CCC(=O)N(C3CCCCCC3)C2)c(OC)c1 (stereo not drawn)	-25.2%	i
COc1ccc(C(=O)N/N=C(\C)Cn2nc([N+](=O)[O-])cc2C)cc1	-9.9%	-10.3%
O=C(NCCc1ccccc1)c1ccc2c(c1)CCN2S(=O)(=O)c1ccc(Cl)cc1	-15.8%	-15.5%
CCOc1ccc(-n2c(SCC(=O)NCC3CCCO3)nc3c([nH]c4ccccc43)c2=O)cc1 (stereo not drawn)	-6.4%	-13.2%

Carrying on:
smiles	Vaccinia Venus	Vaccinia mCherry
COc1cc2c(NC3CCN(C)CC3)nc(N3CCCN(C)CC3)nc2cc1OCC1CCCCN1 (stereo not drawn)	15.8µM*	5.01µM*
O=C(COC(=O)c1ccccc1Br)NCC1CCCCC1	-25.1%	?
Cc1ccc(NC(=O)CN2C(=O)C3CCCCN3C(=O)c3ccccc32)cc1 (stereo not drawn)	-9.0%	.
COc1ccc(N(CC(=O)NCCSC2CCCCC2)S(=O)(=O)c2ccc(C)cc2)cc1	-15.5%	i
Cc1cc(NC(=O)c2cccnc2Cl)ccc1NC(=O)c1cc2ccccc2o1	-3.5%	-3.1%
C=CCOc1ccc(CN(C)CC(O)COc2cccc3ccccc23)cc1 (stereo not drawn)	-20.1%	-22.0%
CC1CCc2c(cc(-c3ccccc3)n2-c2ccc(C(=O)NC(C)C)cc2)C1 (stereo not drawn)	-16.1%	-17.3%
CCc1cccc2c(N=O)c(O)[nH]c12	-21.2%	-27.9%

Other results
smiles	Vaccinia Venus	Vaccinia mCherry
COc1cc(O)c(C(C)=O)c2c1C=CC(C)(C)O2	-0.1%	-2.1%
C/C(=N\Nc1cc(C(F)(F)F)ccc1Cl)c1ccncc1	-8.5%	-17.5%
COc1ccc(CNC(=O)CCn2cccn2)cc1	3.9%	8.0%
Cc1ccc(S(=O)(=O)c2cc3c(=O)n4cccc(C)c4nc3n(CC3CCCO3)c2=N)cc1C (stereo not drawn)	0.7%	-1.0%
COc1ccc(S(=O)(=O)Nc2cc(C(=O)NC(C)C)ccc2N2CCOCC2)cc1	-26.9%	?
COc1ccccc1S(=O)(=O)Cc1ccc(C(=O)NCc2ccco2)o1	-0.7%	8.5%
O=C(N/N=C\C=C\c1ccc2c(c1)OCO2)C1COc2cc3ccccc3cc2O1 (stereo not drawn)	-7.7%	.
CC(OC(=O)CCCN=C1NS(=O)(=O)c2ccccc21)C(=O)Nc1ccc(F)cc1Cl (stereo not drawn)	-7.0%	-13.1%

(more compounds)
smiles	Vaccinia Venus	Vaccinia mCherry
Cn1c(=O)n(CC(=O)NCC2CCCO2)c(=O)c2c3c(sc21)COC(C)(C)C3 (stereo not drawn)	-15.8%	-20.9%
Cc1ccc(-c2noc(-c3cc4ccccc4oc3=O)n2)cc1	-11.1%	.
COc1ccc(-c2nnc(N(C)C(=O)c3ccno3)s2)cc1	-11.6%	.
CCOC(=O)N1CCN(c2c(NCC3CCCO3)c(=O)c2=O)CC1 (stereo not drawn)	-1.8%	i
C[C@@H]1COC(=O)[C@H](NC(=O)OCC2c3ccccc3-c3ccccc32)C/C=C\C[C@@H](CC(=O)N(CCO)Cc2ccccc2)C(=O)N1	-10.3%	-6.7%
Cc1cccc(C)c1OCC(=O)N[C@@H](Cc1ccccc1)[C@@H](O)C[C@H](Cc1ccccc1)NC(=O)[C@H](C(C)C)N1CCCNC1=O	?	i
N#Cc1ccccc1NC(=O)C1CCCO1 (stereo not drawn)	-12.9%	-13.9%
COc1cc(OC)cc(C(=O)N2CCN(C(=O)COc3ccc(C)cc3)CC2)c1	2.5%	2.2%

The list goes on.
smiles	Vaccinia Venus	Vaccinia mCherry
Cc1nnc(SCc2nc3scc(-c4ccccc4)c3c(=O)[nH]2)s1	0.0%[7.34 µM]	i[7.34 µM]
O=c1c2ccccc2ncn1-c1cccc(Cl)c1	-1.4%	.
O=C(COc1ccccc1)Nc1ccc2[nH]c(=O)[nH]c2c1	-8.3%[7.34 µM]	i[7.34 µM]
Cc1ccccc1-n1nc(C)c2c1N=C1C(Cl)=CC(Cl)=CN1C2c1ccc(C(=O)O)cc1 (stereo not drawn)	-11.6%	i
O=C(Nc1nnc([C@H]2C[C@H](O)[C@@H](CO)O2)s1)c1cccc(C(F)(F)F)c1	-7.4%	42.5%[activator]
Cc1nc(CNS(=O)(=O)c2cc(C)c(C)cc2C)cs1	27.4%	.
Cc1cccc(C)c1-n1c(C)cc(/C=N/NC(N)=S)c1C	?	-16.6%
COc1ccc(/C=N/n2cnc3c([nH]c4ccc(F)cc43)c2=O)cc1CSc1ccccn1	2.5%	11.0%

More structures follow.
smiles	Vaccinia Venus	Vaccinia mCherry
Cc1cc(C(=O)Nc2ccccc2-c2nc(CNC(=O)c3sc(C)nc3C)c(C)o2)c(C)o1	6.2%	-3.3%
CCCNC(=O)c1cnn(-c2ccc(C)c(C)c2)c1C1CCN(C(=O)OC(C)(C)C)CC1	-6.4%	-18.2%
Cc1ccccc1CNC(=O)Cn1cc2c(n1)-c1c(oc(C(=O)N3CCCC3)c1C)CC2	-3.9%	-10.6%
O=C(COC(=O)CNC(=O)c1ccc(Cl)c([N+](=O)[O-])c1)NC(=O)CN1CCCC1=O	-9.0%	-11.0%
CCSc1nc(=S)n(-c2ccccc2)c(C)c1C(C)=O	-13.8%	.
Cc1ccc(Cl)cc1N1CCN(C(=O)C2CCN(Cc3nc(-c4ccc(Cl)cc4)oc3C)CC2)CC1	-23.6%	?
Cc1ccc(C(=O)Oc2ccc(-c3nnco3)cc2)o1	-0.6%	-8.6%
CC(=O)N1c2ccc(S(=O)(=O)N3CCC(C(=O)Nc4cccc(C)c4)CC3)cc2CC1C (stereo not drawn)	-3.0%	-1.0%

(next part)
smiles	Vaccinia Venus	Vaccinia mCherry
CN(c1ccc(C(=O)Nc2ccc(F)cc2F)cc1)S(=O)(=O)c1ccccc1	-26.3%	-5.4%
Cc1cccc(NC(=O)CN2C(=O)S/C(=C\c3ccccn3)C2=O)c1	-8.8%	-0.3%
Cc1c(C(=O)NCc2ccc3c(c2)OCCO3)sc(=O)n1Cc1cccc(C(F)(F)F)c1	-1.8%	13.6%
CCCCCc1nnc(NC(=O)c2ccc(=O)n(C)n2)s1	2.2%	0.3%
COc1cc2cnc(-c3cccnc3)cc2cc1OC	-18.9%	-6.4%
N#Cc1ccc(C(=O)N2CCCCC2c2cc(C(=O)NCc3ccccc3)no2)cc1 (stereo not drawn)	-11.6%	1.9%
O=C(C[n+]1ccccc1)N/N=C/c1ccc(F)cc1	-3.1%	0.8%
Cc1ccn2cc(C(=O)Nc3nnc(C)s3)nc2c1	-1.6%	-5.5%

Remaining list, next part:
smiles	Vaccinia Venus	Vaccinia mCherry
c1csc(CCCN2CCCCC2)c1	-10.6%	-25.4%
Cc1ccc(C2CC(C(F)(F)F)n3ncc(C(N)=O)c3N2)cc1 (stereo not drawn)	-25.2%	.
Cc1cc2ccccn2c1C(=O)c1ccc(C#N)cc1	-25.8%	i
O=C(NNC(=O)c1cccs1)c1ccc(Br)cc1	1.0%	-19.2%
Cc1cccc(C)c1OCCn1nnc2ccccc21	-11.5%	-5.6%
C=C(C)CNC(=S)Nc1cccc2cnccc12	-10.1%	i
CCCCNC(=O)Oc1cccc(N2CCCC2=O)c1	6.2%	-0.3%
CS(=O)(=O)c1ccc(Cl)c(NC(=O)CCCc2nc3ccccc3c(=O)[nH]2)c1	-1.2%	-7.4%

Next part
smiles	Vaccinia Venus	Vaccinia mCherry
O=C(c1ccc(F)c(S(=O)(=O)N2CCOCC2)c1)N1CCc2ccccc21	-6.8%	-11.5%
COc1ccc(-c2ccnc(-c3ccc(OCCCF)cc3)n2)cc1	-8.9%	-18.3%
COc1ccc(-c2nc3ncccc3n2O)cc1	-10.3%	-6.1%
COc1ccc2c(C)c(CCC(=O)NCCc3ccccc3)c(=O)oc2c1	-10.0%	7.1%
COc1cccc(C(=O)Nc2ccc(C3CC3(Cl)Cl)cc2)c1 (stereo not drawn)	-23.7%	-9.4%
CC1(C(=O)Nc2ccc(Cl)c(Cl)c2)CCN1CCc1ccccc1 (stereo not drawn)	-2.6%	-1.7%
Cc1cc(C)n(-c2ccc(C(=O)Nc3cccc([N+](=O)[O-])c3)cc2)n1	-6.2%	-17.7%
CCOc1ccccc1NC(=O)C1CCCN(S(=O)(=O)c2c(C)[nH]c(=O)[nH]c2=O)C1 (stereo not drawn)	9.8%&0.0%	0.8%
C=CCNC(=O)COc1cc(C)ccc1C	-7.1%	i

From PubChem
